# Assay outcomes from PubChem BioAssay.
# NPR1 antag: Natriuretic polypeptide receptor (hNpr1) antagonism - Primary qHTS. HEK293 hNpr1 GloSensor cGMP, ANP-stimulated luminescence. 76,000 tested, 1.6% active. Potency, µM (highest dose often 46.3 µM), for the others: at the highest dose activity change, negative = inhibition, hits mostly inhibitors. AID 1347048, 2019; active = well fitted inhibition curve with a large enough effect; inconclusive = small, poorly fitted or top-dose-only effect; inactive = no such curve, though single readings can be large or run the other way;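 further: nearly all actives have a fitted effect of over 60% in size; nearly all hits also lower the signal before the agonist is added; a reference antagonist and vehicle were the controls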
# Target sequence (P16066 whole entry, looked up): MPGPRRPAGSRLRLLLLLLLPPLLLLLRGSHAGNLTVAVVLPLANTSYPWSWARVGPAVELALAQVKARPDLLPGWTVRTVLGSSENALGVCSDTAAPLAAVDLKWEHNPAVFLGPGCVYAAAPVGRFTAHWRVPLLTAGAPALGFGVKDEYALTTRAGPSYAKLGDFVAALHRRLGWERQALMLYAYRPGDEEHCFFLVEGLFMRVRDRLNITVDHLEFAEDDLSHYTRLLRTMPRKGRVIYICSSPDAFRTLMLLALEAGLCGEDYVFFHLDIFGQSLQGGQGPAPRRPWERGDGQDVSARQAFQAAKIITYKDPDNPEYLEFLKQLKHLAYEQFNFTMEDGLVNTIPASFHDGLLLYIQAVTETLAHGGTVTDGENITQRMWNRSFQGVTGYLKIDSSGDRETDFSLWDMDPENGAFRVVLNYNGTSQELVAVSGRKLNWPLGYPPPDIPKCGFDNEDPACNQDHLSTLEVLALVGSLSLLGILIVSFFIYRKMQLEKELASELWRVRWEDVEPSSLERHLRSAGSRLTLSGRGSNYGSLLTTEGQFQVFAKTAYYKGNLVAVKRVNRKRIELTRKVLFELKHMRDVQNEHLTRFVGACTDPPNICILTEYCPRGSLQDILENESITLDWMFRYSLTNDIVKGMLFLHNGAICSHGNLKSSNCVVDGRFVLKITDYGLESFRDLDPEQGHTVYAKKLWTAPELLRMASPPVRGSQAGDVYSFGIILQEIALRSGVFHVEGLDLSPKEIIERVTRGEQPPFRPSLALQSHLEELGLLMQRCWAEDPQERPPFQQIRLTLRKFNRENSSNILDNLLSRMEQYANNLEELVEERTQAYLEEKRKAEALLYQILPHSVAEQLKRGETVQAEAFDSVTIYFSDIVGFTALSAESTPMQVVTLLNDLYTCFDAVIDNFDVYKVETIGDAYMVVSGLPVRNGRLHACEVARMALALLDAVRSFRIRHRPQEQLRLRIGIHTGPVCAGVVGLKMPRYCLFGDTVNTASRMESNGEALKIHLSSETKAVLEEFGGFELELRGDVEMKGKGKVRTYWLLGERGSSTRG
#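 Compound pre-incubated 30 min at room temperature on GloSensor-loaded HEK293 cells stably carrying hNpr1 and the pGS-40F cGMP biosensor. Stimulation uses hNppA at 0.1 nM final; luminescence is taken at baseline and 20 min post-agonist.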
# * = called active by the depositor; u = inconclusive; [ ] = dose if it differs, or a comment. On the % scale 0 is the no-effect control and ±100 the full control effect; potency means the concentration at half of the fitted maximal effect. These rows are one share of the data, so the mix of outcomes need not match the whole.
no.	SMILES	NPR1 antag
1	Clc1ccc(Nc2ncc(-c3cccnc3)c3c2OCC3)cc1	-22%[70.6 µM]
2	O=C(Cn1ccn2nc(-c3ccccc3)c(CO)c2c1=O)Nc1cc(Cl)cc(Cl)c1	0%
3	Cc1ccc(CNC(=O)Cn2c(C)ccc(NS(=O)(=O)c3ccccc3)c2=O)cc1	-7%
4	CC(C)=CCC1(CO)CCCN(Cc2cc(=O)n3cc(C)sc3n2)C1 (configuration not stated)	1%
5	Cc1nncn1C1CCN(S(=O)(=O)c2ccccc2F)CC1	4%
6	CN1CCN(c2cc(N3CCCC(CO)(CC4CC4)C3)nc(N)n2)CC1 (configuration not stated)	-1%
7	CCc1cc(C(=O)N2CCC(c3nnc(Cn4cncn4)n3C)CC2)no1	12%
8	CC(C)Cc1nc(NC(=O)C[C@H]2NC(=O)c3ccccc3NC2=O)n[nH]1	4%
9	O=C(c1c[nH]c(=O)cn1)N1C[C@H](CO)C[C@H](CN2CCOCC2)C1	6%
10	Cc1ccc(-c2ccc(N)nc2)c2cccnc12	8%
11	Cc1ccccc1NC(=O)Cn1c(-c2ccc(Cl)cc2)nc(C)c(CCO)c1=O	3%
12	N#Cc1ccc(C(=O)N2CCC(Cc3nc(-c4ccccc4)n[nH]3)C2)cc1 (configuration not stated)	-14%
13	CC(C)CNC(=O)NCC(=O)N1CCCCCNC(=O)CC1c1ccccc1 (configuration not stated)	3%
14	O=C(c1ccccc1)N1CCC12Cc1ccccc1NC2=O (configuration not stated)	-4%[70.6 µM]
15	COc1ccccc1NC(=O)Nc1cccc(-c2ccc(N3CCCCC3)nn2)c1	u
16	COc1ccc(C(=O)N2C[C@@H](CO)[C@H](c3ccncc3)C2)c(OC)c1	-5%
17	O=C1NCCCN1C1CCN(Cc2ccccc2OC(F)(F)F)CC1	4%[70.6 µM]
18	CC1=C(C(=O)OC(C)(C)C)C(c2ccccc2F)N2C(CC(=O)N3CCCC3)=CSC2=N1 (configuration not stated)	-23%
19	COc1cccc(CNC(=O)C2Cn3cccc3C(=O)N2C)c1 (configuration not stated)	5%
20	COc1ccc(C(=O)Nc2ccc(-c3nnc4n3CCCC4)cc2)cn1	8%
21	O=C1CCN(S(=O)(=O)c2ccccc2)CCCN(C(=O)CN2CCCCCC2)CCN1	5%
22	COCC(=O)N1CCC2(CC1)CCN(Cc1cccs1)c1ccccc1O2	-1%
23	O=C(NC1CCCCC1)c1cc2n(n1)CC(c1ccc3c(c1)OCO3)OC2 (configuration not stated)	-5%
24	CC(=O)N1CCC(N2CC(Oc3cccc(C(=O)N4CCOCC4)c3)C2)CC1	7%
25	Cn1cnc(C(=O)N2C[C@@H](COCC3CC3)[C@H](c3ccccn3)C2)c1	5%
26	CC(=O)NC[C@H]1CCN(Cc2ccc3c(c2)CCO3)C[C@H]1N(C)C	2%
27	O=C(NCc1nncn1CCc1ccccc1)C1NCCc2[nH]cnc21 (configuration not stated)	2%
28	O=C(Cc1ccc(Cl)cc1)N1CCC2(CC1)CC(O)CCO2 (configuration not stated)	-1%
29	Cc1nc(CN2C(=O)OC3(CCN(C(=O)c4ccc(Oc5ccccc5)cc4)CC3)C2(C)c2ccccc2)cs1 (configuration not stated)	-3%
30	O[C@H]1CC[C@@H](Cc2cc(-c3ccccc3)on2)O[C@@H]1CNCc1ccccc1	-17%[70.6 µM]
31	Cc1cnc(C(=O)NC2C[C@H]3CC[C@@H](C2)N3C(=O)Cc2ccc(F)cc2)cn1 (some centres not stated)	-1%
32	CNC(=O)[C@H]1C[C@H](Oc2ccccc2)CN1S(=O)(=O)c1cccc(OC)c1	0%
33	Cc1cc(C)cc(NC(=O)N2CCCC2c2nncn2C2CCCC2)c1 (configuration not stated)	5%
34	Cc1cccc(C)c1NC(=O)CN1C(=O)NC(c2ccc(Cl)cc2)C2=C1COC2=O (configuration not stated)	2%
35	Cc1ccccc1NC1CCn2c(nc(C)c2C(=O)Nc2ccc(F)cc2)C1 (configuration not stated)	-1%[70.6 µM]
36	COc1ccc(C(=O)N2CCc3nc(C)nc(-c4ccc(OC)cc4)c3C2)cc1	0%
37	COc1ccc(-c2nnc3ccc(NCC(C)C)nn23)nc1	4%[70.6 µM]
38	COc1ccc(Cl)cc1C(=O)NC1CCN(c2cc(-c3ccccc3)[nH]n2)C1 (configuration not stated)	-4%
39	CN1C(=O)Cc2cc(C(=O)N3CCN(c4ccccc4Cl)CC3)ccc21	5%
40	COc1ccc(CNC(=O)Cn2ccn3nc(-c4ccc(F)cc4)c(CO)c3c2=O)cc1OC	-4%
41	CC(=O)N1CCC(N2CCOC[C@H]2c2ncc(-c3cccc(F)c3)[nH]2)CC1	3%[70.6 µM]
42	Cc1nc(CCNC(=O)CCc2ccccc2)no1	3%
43	Cc1cc2cc(-c3c(C)noc3C)nc(N3CCCC3)c2o1	4%[70.6 µM]
44	CCNC(=O)N[C@H]1[C@H](O)[C@@H](N2CCN(c3ccccc3OC)CC2)[C@@H]2OC[C@H]1O2	10%[70.6 µM]
45	CCN(Cc1cnn(CC)c1)C(=O)c1c(C)oc2c1CN(Cc1ccc(F)cc1)CC2	-7%
46	Cc1ccc(C2(O)CCN(C(=O)C(=O)c3cccnc3)CC2)nc1	1%
47	CC(C(=O)N1CCCN(c2cc(-c3ccc(Cl)cc3)[nH]n2)CC1)c1ccccc1 (configuration not stated)	u
48	CC(C)c1cccc(-c2cc(NCc3ccccn3)nc3[nH]ccc23)n1	-4%
49	Cc1ccc(-c2noc([C@@H]3Cc4nc[nH]c4CN3Cc3ccc(C(=O)O)cc3)n2)cc1	-2%[70.6 µM]
50	O=C(C1CCN(Cc2ccco2)CC1)N1CCCn2nc(CO)cc2C1	0%
51	CC(C)(C)CN1CCOC[C@H]1c1ncc(-c2ccc(C(F)(F)F)cc2)[nH]1	u
52	CN(C)c1ccc(CC(=O)N2CCn3nc(Cc4ccccc4)cc3C2)cc1	2%
53	Cc1nn(C)c(C)c1S(=O)(=O)N1CCCCCCn2c(nnc2-c2ccc(F)cc2)CC1	-12%
54	CCCN1C(=O)CCc2cc(NC(=O)c3ccc(C)cc3)ccc21	-14%
55	COCCN1C(=O)[C@H]2CN(Cc3ccc(F)c(Br)c3)C[C@H]2C1=O	1%
56	COC(=O)CC[C@H]1CNC(=O)[C@@H]2[C@@H](CCN2C(=O)NC(C)C)N1C	-7%[70.6 µM]
57	CN(C(=O)c1ccc2oc(CCc3ccccc3)nc2c1)C1CCOC1 (configuration not stated)	-13%
58	Cc1ccc(C(=O)NC(C(=O)N2CCCC2)C2CCN(C(=O)c3ccc4c(c3)OCO4)CC2)cc1 (configuration not stated)	2%
59	COc1cccc(C(=O)NCC2(COc3cccc(C)n3)C[C@@H](O)[C@@H](O)C2)c1 (some centres not stated)	1%[70.6 µM]
60	CCN(CC)C(=O)N1CCC(N2CC(OCCOC)C23CCCCC3)CC1 (configuration not stated)	-1%

# (more compounds)
no.	SMILES	NPR1 antag
61	O=C(c1ccccc1)N1CCC(Oc2ccccc2)C1 (configuration not stated)	2%
62	Cc1cc(N2CCCN(Cc3cnn4c(C)cc(C)nc34)CC2)ccn1	0%
63	CCNC(=O)N[C@@H]1C=C[C@@H](c2c(C)nn(-c3ccc(C(F)(F)F)cc3)c2C)C1	25µM*
64	COc1ccccc1NC(=O)Cc1cccn1-c1ccc(Cl)cc1	-21%
65	O=C(COc1ccccc1)N1CCc2c(n(Cc3cccnc3)n(CCc3ccccc3)c2=O)C1	-5%
66	Cc1nc(N2CCC(NCCc3cccnc3)CC2)c2ccsc2n1	3%
67	CCN1CCC(CC(=O)N2CCC3(CC2)NCCc2c3[nH]c3ccccc23)CC1	-4%
68	O=C(NCCc1ccncc1)c1cccnc1OC1CCNCC1	-8%
69	O=C(NCc1ccccc1)NC[C@H]1O[C@@H]2C[C@@H](CC(=O)N3CCOCC3)O[C@@H]2[C@@H]1O	1%[70.6 µM]
70	CCOc1ccc2c(n1)CCN(C(=O)CC1CCCC1)C2	-1%
71	O=C1CC(c2ccccc2)N(Cc2cn[nH]c2-c2ccc(F)cc2)CCCCCN1 (configuration not stated)	-27%
72	CN(Cc1cc(-c2cccs2)n[nH]1)C(=O)c1cn(CCN)nn1	2%
73	COc1ccc(-c2noc(-c3cccn3CC(=O)NC(C)C)n2)cc1F	2%
74	C#CCNC(=O)C[C@@H]1C[C@@H](C(C)C)[C@H](CNS(C)(=O)=O)C=C1C	0%[70.6 µM]
75	O=C(c1cn(-c2ccccc2)nn1)N1CCOC(c2ccc(F)cc2)C1 (configuration not stated)	-16%
76	COc1ccccc1CNC1(Cc2cc(C(C)(C)C)on2)COC1	-2%[70.6 µM]
77	COC[C@@H]1CN(C(=O)c2ccc3[nH]ccc3c2)C[C@H]1c1nc(C)no1	4%
78	Cc1ccc(C(=O)N2CCN(C(=O)c3nnn4c3COC(c3ccccc3)C4)CC2)cc1F (configuration not stated)	-1%
79	Cc1ccccc1-c1nccc2c(=O)cc(N(C)C3CCOCC3)oc12	-4%[70.6 µM]
80	O=C(NCc1ccccc1)C1=NO[C@@H]2CN(Cc3ccc(O)c(Cl)c3)C[C@H]12	-13%[70.6 µM]
81	Cc1oc2c(c1C(=O)N(C)C)CN(S(=O)(=O)c1ccccc1)CC2	0%
82	C#CCNC(=O)CC[C@@H]1CNC(=O)[C@@H]2C[C@H](NC(=O)Nc3ccc(F)cc3F)CN12	7%[70.6 µM]
83	CCn1ccnc1CNc1ccc(-c2nc(-c3ccccc3C)no2)cn1	-2%
84	Cc1noc(-c2cn(C3CCN(C(=O)c4ccsc4)CC3)nn2)n1	0%

# In another format: four of the compounds above
nr	NPR1 antag	SMILES
73	2%	COc1ccc(-c2noc(-c3cccn3CC(=O)NC(C)C)n2)cc1F
83	-2%	CCn1ccnc1CNc1ccc(-c2nc(-c3ccccc3C)no2)cn1
81	0%	Cc1oc2c(c1C(=O)N(C)C)CN(S(=O)(=O)c1ccccc1)CC2
76	-2%[70.6 µM]	COc1ccccc1CNC1(Cc2cc(C(C)(C)C)on2)COC1

# (continued)
no.	SMILES	NPR1 antag
85	COCCN1C(=O)c2cccn2CC1CNC(=O)c1cn[nH]c1-c1ccccc1 (configuration not stated)	-1%
86	O=C(Cc1ccccc1F)N1CCC2(CC1)CN(C1CCC1)CC2CO (configuration not stated)	-15%
87	N#Cc1ccc(CN2CCC(C3CCNC3)CC2)cc1 (configuration not stated)	0%
88	O=C(CCC1CCCC1)N1CCCC(c2noc(COc3ccccc3F)n2)C1 (configuration not stated)	u
89	COc1cccc(CN2C[C@@H](CO)[C@H](NC(=O)C3CCC3)C2)c1	1%
90	CC(C)c1ccc(S(=O)(=O)N2C[C@@H](F)C[C@H]2C(=O)N2CCc3ccccc3C2)cc1	8%
91	COc1cccc(C(=O)N2CCC3(CC2)CC(N(C2CC2)S(C)(=O)=O)CCO3)c1 (configuration not stated)	-4%
92	CSCCC(=O)N1CCC(C2CCN(c3ncccn3)CC2)C1 (configuration not stated)	-2%
93	Cn1nc(C(=O)N2CCC(Cc3nc(C4CC4)n[nH]3)C2)c2ccccc21 (configuration not stated)	-1%
94	CC(C)N1CCCC2(CCN(C(=O)c3cc(C#N)cn3C)C2)C1=O (configuration not stated)	2%
95	O[C@@H]1[C@@H](Cn2cc(C3CC3)nn2)C[C@@H](NCc2ccc(F)cc2)[C@@H]1O	-16%[70.6 µM]
96	CCc1ccc(C(=O)N(C)CC2CCOCC2)cc1	2%
97	CS(=O)(=O)N1CCC(C2CCN(Cc3ccc(Br)o3)C2)CC1 (configuration not stated)	-1%
98	CCc1noc(-c2cn(C3CCN(C(=O)Cc4ccc(Cl)cc4)CC3)nn2)n1	-4%
99	COc1ccc(C(=O)N2CCN(Cc3cn(-c4ccccc4)nn3)CC2)cc1	u
100	c1cc2c(cc1-c1cnc3n1C[C@H](CNC1CCOCC1)OC3)OCO2	2%[70.6 µM]
101	CCN1CCN(C(=O)CN2CC3CC(C2)[C@H]2CCCC(=O)N2C3)CC1 (some centres not stated)	7%
102	COCCN1C(=O)c2cccn2CC1CNC(=O)c1cn[nH]c1-c1ccc(F)cc1 (configuration not stated)	0%
103	Cc1ccc(CC(=O)NC2CCN(c3cc(-c4ccccc4)[nH]n3)C2)cc1 (configuration not stated)	-15%
104	CC(C)c1ccc(CN2CCC3(CC2)OCCN(C)C3=O)cc1	-9%[70.6 µM]
105	COC(=O)[C@@H]1Cc2ncn(Cc3ccc(Cl)cc3)c2CN1Cc1ccc(N(C)C)cc1	-3%
106	COc1cc(=O)n2c(c1C(=O)Nc1cccc(Cl)c1C)CCCC2	0%
107	COc1cccc(S(=O)(=O)N2CCC(CC(=O)NCc3ccccc3)C2)c1 (configuration not stated)	-1%
108	O=C(c1ccc(C(F)(F)F)cc1)N1CCn2c(nn(-c3ccc(F)cc3F)c2=O)C1	-4%

# Part of the list above in order of count of non-hydrogen atoms, falling.
no.	SMILES	NPR1 antag
105	COC(=O)[C@@H]1Cc2ncn(Cc3ccc(Cl)cc3)c2CN1Cc1ccc(N(C)C)cc1	-3%
101	CCN1CCN(C(=O)CN2CC3CC(C2)[C@H]2CCCC(=O)N2C3)CC1 (some centres not stated)	7%
104	CC(C)c1ccc(CN2CCC3(CC2)OCCN(C)C3=O)cc1	-9%[70.6 µM]

# Continuation:
no.	SMILES	NPR1 antag
109	CCc1cccc(NC(=O)Cn2cccc2-c2nc(-c3ccccc3)no2)c1	-2%
110	Cc1cc(N2CCC(NC(=O)c3ccc4[nH]ccc4c3)C2=O)ccc1F (configuration not stated)	-11%
111	CN(C)c1ccc(C(=O)N2CCC(n3cc(-c4nc(-c5ccccc5)no4)nn3)CC2)cc1	0%
112	O=C(C1C2C(=O)N(C3CCCCCC3)C[C@@]23C=C[C@@H]1O3)N1CCS(=O)(=O)CC1 (some centres not stated)	6%
113	CN1CCCCC(CC(=O)N2CCCc3ccccc32)C1=O (configuration not stated)	2%
